# CDC25B-CDK2 inh – primary biochemical HTRF screen for blockers of M-phase inducer phosphatase 2 binding to CDK2/cyclin A; HTRF CDC25B-CDK2/CyclinA binding, anti-His/anti-Flag; stronger effect = higher value; z-score (concentration not given with the values); 0.72% of 94,000 active;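 also: score is relative to mean and SD of negative controls; strong numbers were not always called active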
# TAR Tat displ – TAR RNA-Tat peptide displacers, HIV-1, primary screen, biochemical, FRET, FAM/TAMRA-labeled Tat | HIV-1 TAR RNA, Tat peptide displacement FRET; stronger effect = higher value | z-score (test concentration not listed) | 0.6% of 100,000 active;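 also: score is relative to mean and SD of negative controls; some compounds called inactive have numbers as strong as hits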
# Starred values were filed as active, the others as inactive; . = not tested or not shown.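 The calls were made as follows: active = z-score from 3 up in half or more of its runs; inactive = the rest.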
SMILES,CDC25B-CDK2 inh,TAR Tat displ
CCOC(=O)Cc1csc(NC(=O)c2ccco2)n1,-1.3,1.7
COc1cc(C)c(C(C)C)cc1S(=O)(=O)NCCN1CCOCC1,0.48,1.1
Cc1ccc(-c2nc3sccn3c2Nc2ccccc2C)cc1,-1.6,.
O=C(c1ccccc1)c1ccc2ccccc2n1,-1.2,.
Cn1c(=O)[nH]c(=O)c2c1nc(N1CCN(CCO)CC1)n2Cc1ccccc1,-0.88,-0.27
Cc1cc2c(cc1C(N)=O)OCCCO2,.,2.1
Cc1ccc2nc(NCc3ccco3)c3nnnn3c2c1,.,-1.2
CC(=O)OCC[C@H](C)CCC=C(C)C,.,0.5
O=C(O)CNC(=O)c1ccc(NC(=O)c2cccs2)cc1,-0.76,.
CC1CN(C(=O)Nc2cccc(Br)c2)c2ccccc2S1 (stereo not drawn),.,0.41
Cn1ncc2c(N3CCN(c4ccccc4)CC3)ncnc21,.,2.1
NC(=S)c1ncc(C(F)(F)F)cc1N1CCCC1,-1.8,.
COc1ccc(C2=Nc3ccc(OC)cc3NC(c3ccc(OC)c(OC)c3)=N2)cc1,-1,-1.1
CC1CC(C)CN(C(=O)C(NS(=O)(=O)c2ccc3c(c2)oc(=O)n3C)C(C)C)C1 (stereo not drawn),-0.4,.
O=C(NCc1ccco1)c1ccsc1,-2.2,.
O=C(Nc1ccc(N2CCN(C(=O)c3cccs3)CC2)c(Cl)c1)c1cccc(-n2cnnc2)n1,.,1.6
Cc1ccc2oc(-c3ccc(N4C(=O)c5cccnc5C4=O)cc3)nc2c1,-0.39,.
CCC1(CC)Cc2ccccc2-c2[nH]c(=O)n(CC3=CCCO3)c(=O)c21,-1.6,0.63
Cc1nn(-c2ccc(F)cc2F)c(=O)c2nc(-c3ccccc3)sc12,-0.85,.
Cc1c(-c2ccnn2S(C)(=O)=O)sc2ccccc12,-1.8,.

# Ordered by count of non-hydrogen atoms (lowest first): 7 of the compounds above
SMILES,CDC25B-CDK2 inh,TAR Tat displ
CC(=O)OCC[C@H](C)CCC=C(C)C,.,0.5
CCOC(=O)Cc1csc(NC(=O)c2ccco2)n1,-1.3,1.7
Cn1ncc2c(N3CCN(c4ccccc4)CC3)ncnc21,.,2.1
Cc1ccc(-c2nc3sccn3c2Nc2ccccc2C)cc1,-1.6,.
Cc1nn(-c2ccc(F)cc2F)c(=O)c2nc(-c3ccccc3)sc12,-0.85,.
Cc1ccc2oc(-c3ccc(N4C(=O)c5cccnc5C4=O)cc3)nc2c1,-0.39,.
O=C(Nc1ccc(N2CCN(C(=O)c3cccs3)CC2)c(Cl)c1)c1cccc(-n2cnnc2)n1,.,1.6

# (more compounds)
SMILES,CDC25B-CDK2 inh,TAR Tat displ
Cn1c(=O)c2c(SCC(=O)Nc3nc4ccccc4s3)nc(-c3cccs3)nc2n(C)c1=O,-0.37,.
Cc1nc(C)c2c(=O)oc3ccc(Cl)cc3c2c1C,-2.8,.
CN(C1CCCCC1)S(=O)(=O)c1ccc2c(c1)c(=O)c(C(=O)NCCCN1CCCC1)cn2C,-1.7,-0.11
Cc1ccc(C2=CC(c3ccccc3)n3nc(NS(C)(=O)=O)nc3N2)cc1 (stereo not drawn),0.63,-1.2
CC(C)NC(=O)c1nn2c(c1Cl)NC(c1ccc(Br)cc1)CC2C(F)(F)F (stereo not drawn),-0.6,0.43
CC(C)CCNC(=O)C1CCCN(c2nnc(-n3cccc3)s2)C1 (stereo not drawn),-0.29,0.36
Cc1cc(=O)n(Cc2cc(=O)n3ccccc3n2)c2c1c(C)nn2-c1cccc(F)c1,.,0.27
Cn1cccc1Cc1nnc(SCC(=O)NC2CCCC2)n1CCc1ccccc1,-1.7,.
Cc1cc(-c2ccc(C)c(S(=O)(=O)NC3CCCC3)c2)on1,.,1.4
Cc1nc(C(N)=O)c2[nH]c(=O)n(-c3ccc(F)cc3)c2n1,.,1.9
COc1ccc(CN=C2NS(=O)(=O)C(c3ccc(C(C)C)cc3)=C2C)cc1OC,-5.7,-0.17
Cn1c(=O)oc2ccc(C(=O)O)cc21,.,0.44
O=C(O)c1cc(O)ccc1-c1ccc(O)cc1,-0.39,1.1
O=C(O)C1CCCCC1C(=O)Nc1ccccn1 (stereo not drawn),-0.34,0.5
O=C(CSc1nc2ccccc2c(=O)[nH]1)Nc1ccc(Br)cc1F,.,1.8
COc1cc(NC(=O)c2sc3nc4c(cc3c2N)CCCC4)cc(OC)c1OC,-0.72,.
Fc1ccc(NC(c2ccccc2)c2nnc(-c3ccccc3F)o2)c(F)c1 (stereo not drawn),-1.4,0.8
O=C1c2cccnc2C(Nc2ccc(Br)cc2F)N1Cc1ccc(F)cc1 (stereo not drawn),-1.4,1.7
Cc1cc(CNC(=O)Nc2ccc(F)cc2)c(C)n1-c1ccc(F)cc1,.,-5.9
Cc1nc2nc(CSc3nnc(C)s3)cc(=O)n2[nH]1,-1.4,-0.49
CC1=C(C(=O)NC(C)c2ccc3c(c2)OCCO3)C2(CCCCC2)OC1=O (stereo not drawn),0.17,0.88
CCOC(=O)C1CCN(S(=O)(=O)c2ccc3c(c2)CC(C)N3C(=O)C2CCC2)CC1 (stereo not drawn),.,-0.4
CN1CCN(C2CCCCC2NS(=O)(=O)c2ccccc2)CC1 (stereo not drawn),0.46,1.3
O=C(Cn1cc(S(=O)(=O)c2ccccc2)c(=O)c2ccccc21)Nc1ccc2c(c1)OCCO2,0.92,0.72
Clc1cccc(-c2noc3ncnc(NCc4ccccn4)c23)c1,.,0.31
O=C1c2[nH]nc(-c3ccccc3O)c2C(c2cccc(O)c2)N1CCO (stereo not drawn),-1.2,-0.73
O=c1c2cccnc2n(Cc2ccccc2F)c(=O)n1Cc1ccco1,-0.61,0.11
COCCOC(=O)C1=C(C)NC(=O)NC1c1ccc(C(=O)O)cc1 (stereo not drawn),-1.4,.
CC1CCc2c(sc(NC(=O)c3noc4c3CCCCC4)c2C(N)=O)C1 (stereo not drawn),-1.8,.
O=C(Nc1cccc(Br)c1)Nc1c[nH]c(=O)[nH]c1=O,-1.7,1.1
CCSCCOC(=O)C1=C(C)NC(=O)NC1c1ccccc1OC (stereo not drawn),-1.8,.
COc1ccccc1-c1cc(C(F)(F)F)n2ncc(C(=O)OCC3CCCO3)c2n1 (stereo not drawn),-0.79,2.8
Cc1nc2sc3c(NCCC(C)C)ncnc3c2c2c1COC(C)(C)C2,-1.1,1.3
O=C(CSCc1nc2cccnc2n1C1CCCCC1)N1CCC(N2CCCCC2)CC1,.,-0.83
CCOc1cc(C2NC(C(=O)O)CS2)ccc1OCc1ccccc1 (stereo not drawn),-1.3,.
Cc1ccc(-c2nc3cccc(C)n3c2Nc2ccc3c(c2)OCO3)o1,-0.58,.
Cc1nn2c(=O)cc(COC(=O)c3ccccc3Cl)nc2s1,.,1
CNc1nc(NCc2ccc(Cl)cc2)c2cnn(C)c2n1,.,2
Fc1ccccc1-c1n[nH]c(=S)n1CC1CCCO1 (stereo not drawn),0.36,.
COc1ccc(NC(=O)CSc2nc3ncccc3o2)cc1OC,.,0.66

# Next section, starting with the last two of the part before.
SMILES,CDC25B-CDK2 inh,TAR Tat displ
Fc1ccccc1-c1n[nH]c(=S)n1CC1CCCO1 (stereo not drawn),0.36,.
COc1ccc(NC(=O)CSc2nc3ncccc3o2)cc1OC,.,0.66
O=C(Cn1cc(C(=O)c2ccco2)c2ccccc21)Nc1ccccc1Cl,-0.46,1.9
O=C(CSc1nc2c(cnn2-c2ccccc2)c(=O)[nH]1)Nc1ccc(Cl)cc1,.,1.6
O=C(Nc1cc(Br)ccc1O)c1cc(-c2ccc(Cl)cc2)on1,1.1,.
CCCS(=O)(=O)Nc1cccc(-c2ccc(OC)nn2)c1,.,0.78
CCc1nn2c(=O)cc(COC(=O)c3ccco3)nc2s1,.,0.12
Cc1c(C(=O)N2CCCC2)oc2c1-c1nn(CC(=O)NCCC3=CCCCC3)cc1CC2,.,2.1
O=C(Nc1ccc2oc(-c3ccncc3)nc2c1)c1ccc(-c2ccc(F)cc2)o1,0.01,.
COc1cccc(C2CC(=O)N3CN(c4ccc(Br)cc4)CSC3=C2C#N)c1OC (stereo not drawn),5.9*,-3.1
COc1cc(NS(=O)(=O)c2ccc3c(c2)CC(C)N3C(=O)C2CCC2)cc(OC)c1 (stereo not drawn),.,1
Cc1nn(C(C)C(=O)NC2CCCCCC2)c(=O)c2cc3sccc3n12 (stereo not drawn),-1.6,.
Cc1ccc(C2=NS(=O)(=O)N(C)C(C(=O)N3CCCC3)=C2)cc1,-1.9,2
O=S1(=O)N=CN(CCOc2ccccc2)c2ccccc21,.,0.22
CCOC(=O)c1noc2nc(C)n(Cc3nc(-c4cccs4)oc3C)c(=O)c12,.,0
CCC(C(=O)NCc1cccs1)n1c2ccccc2c2nc(=O)cc(C)n21 (stereo not drawn),-1.1,-0.91
CCOc1ccc(/C(O)=C2\C(=O)C(=O)N(c3nccs3)C2c2ccc(OC)c(OC)c2)cc1 (stereo not drawn),-1.1,-0.38
COc1cc(NC2=NS(=O)(=O)C(c3ccc(Cl)cc3)=C2C)cc(OC)c1,-1.5,0.62
O=c1[nH]c2ccc(S(=O)(=O)NCCOc3ccccc3F)cc2s1,1.5,.
CCn1ccnc1P(=O)(c1ccccc1)N1CCOCC1 (stereo not drawn),-2.5,.
CSc1ccc(C2C=C(C(=O)O)Nc3nnnn32)cc1 (stereo not drawn),.,2.5
O=C(NCCc1ccc(Cl)cc1)NCc1noc2ccccc12,.,-1.4
COc1ccc(C(=O)CC2(O)C(=O)Nc3ccc(Cl)cc32)cc1OC (stereo not drawn),-0.65,.
S=c1nc2ccccc2c2nc(COc3ccc(Cl)cc3)[nH]n12,-0.28,.
O=C(C1CC1)N1N=C(c2ccc(Cl)cc2)CC1(O)C(F)(F)F (stereo not drawn),0.97,.
O=C(CCCN1C(=O)CSc2ncccc21)N1CCOCC1,-0.42,0.39
Cc1cc(C)c(S(=O)(=O)NC(c2ccccc2)c2nnc(-c3ccccc3)o2)c(C)c1 (stereo not drawn),.,0.38
NC(=O)C1CCN(c2csc3ccc(Br)cc3c2=O)CC1,.,-0.3
O=C(c1ccc2c(c1)OCCO2)N1CCN(c2nc3c(F)cccc3s2)CC1,.,0.15
CCOC(=O)c1c(NC(=O)c2cc(=O)c3ccc(C)cc3o2)sc2c1CCC2,-0.68,0.79
O=C1CC(NCCc2c[nH]c3ccccc23)C(=O)N1c1ccccc1 (stereo not drawn),-0.59,-0.02
Cn1cc(C(=O)N2CCCCCC2)c(=O)c2cc(S(=O)(=O)N3CCCC3)ccc21,-0.25,.
Cc1ccc(-c2cc3c4c(C)n(C5CCCCC5)c(C)c4c(C)nn3c2)o1,-0.58,17*
CCc1ccc(C2=Nn3c(Cc4ccc(OC)c(OC)c4)nnc3SC2)cc1,.,1.5
O=c1c(S(=O)(=O)c2ccccc2)c[nH]c2ccc(Br)cc12,-0.33,.
CCCCN(C)Cc1c(C)[nH]c2c(ccc3ccccc32)c1=O,0.09,.
CCN(CC)CCCNC(=O)Cn1ncc2c1-c1ccccc1OC2,0.6,-0.08
CCN(C(=O)Cn1c(=O)oc2ccccc21)c1ccccc1,.,-0.91
O=S(=O)(c1ccc2nc(N3CCN(c4ccccc4F)CC3)ccc2c1)N1CCCCC1,.,2.1
O=c1c2c(N3CCOCC3)cc(N3CCOCC3)nc2n(-c2ccccc2)c(=O)n1-c1ccccc1,-0.05,.
Cc1nc2ccc([N+](=O)[O-])cc2nc1C,-3,.
CCOc1ccc(C2CC(=O)NC3=C2C(=O)CC(C)(C)C3)cc1Cl (stereo not drawn),1.8,1.1

# One compound at a time (already shown):
# Profile of O=c1c(S(=O)(=O)c2ccccc2)c[nH]c2ccc(Br)cc12 = CDC25B-CDK2 inh = -0.33; TAR Tat displ = .
# Profile of CCN(CC)CCCNC(=O)Cn1ncc2c1-c1ccccc1OC2 = CDC25B-CDK2 inh = 0.6; TAR Tat displ = -0.08
# Profile of O=C(c1ccc2c(c1)OCCO2)N1CCN(c2nc3c(F)cccc3s2)CC1 = CDC25B-CDK2 inh = .; TAR Tat displ = 0.15

# Remaining list, next part:
SMILES,CDC25B-CDK2 inh,TAR Tat displ
O=C1Cc2cc(S(=O)(=O)N3CCc4ccccc4C3)cc3c2N1CCC3,.,1.5
O=[N+]([O-])c1ccc(-n2nnc3ccccc32)nc1,-3.2,.
O=C1N(Cc2ccccc2)c2ccccc2S(=O)(=O)N1c1ccc(F)cc1,.,0.4
Cc1ccnc(NC(=O)Nc2ccc3c(c2)N(C)C(=O)CS3)c1,3.8,-4.3
Cc1cc(C)c(C#N)c(SCc2ccccc2)n1,-1.5,-0.23
CC(C)CN1C(=O)c2ccccc2C(C(=O)NC2CC2)C1c1cccs1 (stereo not drawn),.,2.6
O=C(Nc1ccc(F)c(F)c1)c1sc(=S)n2c1[nH]c(=O)c1ccccc12,.,0.84
CC1(C)CC(=O)C2=C(C1)Nc1nnnn1C2c1ccccc1Cl (stereo not drawn),-0.54,.
O=c1[nH]c2ccc(S(=O)(=O)NCCO)cc2[nH]1,-0.18,1.7
Cc1cc(=O)n2nc(-c3cccs3)nc2n1CC(=O)N1CCC(C)CC1,-1.1,-1.5
COc1ccc(/C=C/c2nc(C#N)c(NCc3cccnc3)o2)cc1OC,-0.14,0.59
CN(C1CCCCC1)S(=O)(=O)c1ccc(-n2cccn2)cc1,.,0.4
COc1ccc(/C=C2\SC(=S)NC2=O)cc1,-0.98,.
CCC(C)Nc1ncnc2scc(-c3ccc(F)cc3)c12 (stereo not drawn),.,-0.7
N#Cc1cc2c(nc1SCC(=O)c1ccccc1)CCCC2=O,-6.9,0.15
COc1ccc(CNc2ncnc(NCc3ccc(OC)cc3)c2[N+](=O)[O-])cc1,-0.98,0.46
Cc1ccc(Nc2c(C)c(C)nc3ncnn23)cc1C,.,0.41

# Screening results as filed in PubChem.
